Bioassay records deposited in PubChem BioAssay by National Center for Advancing Translational Sciences (NCATS).
CtBP-E1A inh: qHTS Assay for Inhibitors of the CtBP/E1A Interaction; AlphaScreen GST-E1A/His-CtBP binding, 1536-well; stronger effect = lower value; control for the full effect not named in the record; hit rate 0.49% among 340,000; activity change, % (concentration not given with the values); AID 651724, 2012; CtBP / adenovirus E1A interaction (AlphaScreen); in the data active means activity change below about -65%; inconclusive means about -30% to -65%; inactive means above about -30%; also: % is scaled to controls: 0 for no effect and ±100 for the full control effect
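Homogeneous bead-based format: GST-tagged E1A captured on glutathione donor beads, His-tagged CtBP on nickel acceptor beads; compounds precede bead addition by 2 h at 37 °C.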
TRPML1 agonist: qHTS for Agonists of the Human Mucolipin Transient Receptor Potential 1 (TRPML1). Mucolipin-1 (Homo sapiens), Q9GZU1. TRPML1-expressing cells, Ca2+ dye fluorescence, FDSS; host cell line not named in the record; reference of the full effect not given here. activation, % (concentration not given with the values). hit rate 0.12% among 410,000. AID 624414, 2012; in the data active = activation above about 50%; inconclusive = about 30% to 50%; inactive = below about 30%; also: 0% is about no effect; the text of the record puts the active cut at 80%
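Agonist activity was taken from a 110 s kinetic Ca2+ dye read on the FDSS after pinning compounds onto TRPML1-DL cells. The cells were seeded at 1,500/well with Tet inducer, incubated about 16 h, then dye-loaded at room temperature.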
D2 ag: Beta-Arrestin HTS for Positive Allosteric Modulators of the Human D2 Dopamine Receptor: Agonists. D(2) dopamine receptor (Homo sapiens), P14416. DiscoveRx PathHunter D2 beta-arrestin, luminescence, 90 min; 100% = 57 uM dopamine signal. activation, % (concentration not given with the values). hit rate 0.084% among 360,000. AID 624465, 2012; in the data active = activation above about 40%; inconclusive = about 15% to 40%; inactive = below about 15%; also: compound concentration not given in the record; the text of the record calls up to 30% inactive
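DiscoveRx PathHunter D2 beta-arrestin cells (2,100/well) attached overnight, then compound-stimulated 90 min at 37 C in HBSS/10 mM HEPES/0.1% Tween-20 buffer; beta-galactosidase complementation read by luminescence after 1 h at ambient temperature. Dopamine 57 uM final (EC100) as control.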
PINK1 modulator: A Quantitative High throughput Screen to Identify Chemical Modulators of PINK1 Expression; PINK1 immunofluorescence, high-content cytometry, 24 h; Potency, µM (series often up to 76.6 µM), for inactives: at the highest dose activation (PINK1 increase), hits mostly activators; hit rate 0.2% among 410,000; AID 624263, 2012; active = well fitted activation curve with a large enough effect; inconclusive = small, poorly fitted or top-dose-only effect; inactive = flat fitted curve, though single readings scatter; cell line not stated here;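 also: potency is read from the fitted curve at half-maximal effect; % of control where 0% means no effect; nearly all actives have a fitted effect of over 65% in size; a mitochondrial uncoupler was the plate control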
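PINK1 protein level read as immunofluorescence by microplate cytometer in a fixed, stained stable cell line after 24 h exposure to five compound concentrations, with CCCP as control.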
TRPML1 inh: qHTS for Inhibitors of the Human Mucolipin Transient Receptor Potential 1 (TRPML1) | Mucolipin-1 (Homo sapiens), Q9GZU1 | TRPML1-inducible cells, Ca2+ dye fluorescence, FDSS; stronger effect = lower value; inhibition of EC80 agonist-evoked calcium signal | activity change, negative = inhibition, % (test concentration not listed) | hit rate 0.02% among 390,000; in the data active means activity change below about -50%; inconclusive means about -30% to -50%; inactive means above about -30%;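 also: stimulus is agonist 54-4 at its EC80 concentration; % is scaled to controls: 0 for no effect and ±100 for the full control effect; compound concentration not given in the record; the text of the record puts the active cut at -80%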
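Tet-induced TRPML1-DL cells loaded with Ca8 no-wash calcium dye were read kinetically on FDSS. Compound addition was followed by EC80 agonist 54-4 (4 uM final); inhibition was read over 110 s.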
Six1-Eya2 inh: qHTS Assay for Inhibitors of the Six1/Eya2 Interaction; Homeobox protein SIX1 (Homo sapiens) + Protein phosphatase EYA2 (Homo sapiens), …; AlphaScreen GST-Six1/His-Eya2 binding, biochemical; stronger effect = lower value; control for the full effect not named in the record; activity change, % (test concentration not listed); hit rate 0.56% among 360,000; AID 651725, 2012; in the data active = activity change below about -65%; inconclusive = about -30% to -65%; inactive = above about -30%; also: % is scaled to controls: 0 for no effect and ±100 for the full control effect; compound concentration not given in the record
Target sequence (O00167 whole entry, looked up): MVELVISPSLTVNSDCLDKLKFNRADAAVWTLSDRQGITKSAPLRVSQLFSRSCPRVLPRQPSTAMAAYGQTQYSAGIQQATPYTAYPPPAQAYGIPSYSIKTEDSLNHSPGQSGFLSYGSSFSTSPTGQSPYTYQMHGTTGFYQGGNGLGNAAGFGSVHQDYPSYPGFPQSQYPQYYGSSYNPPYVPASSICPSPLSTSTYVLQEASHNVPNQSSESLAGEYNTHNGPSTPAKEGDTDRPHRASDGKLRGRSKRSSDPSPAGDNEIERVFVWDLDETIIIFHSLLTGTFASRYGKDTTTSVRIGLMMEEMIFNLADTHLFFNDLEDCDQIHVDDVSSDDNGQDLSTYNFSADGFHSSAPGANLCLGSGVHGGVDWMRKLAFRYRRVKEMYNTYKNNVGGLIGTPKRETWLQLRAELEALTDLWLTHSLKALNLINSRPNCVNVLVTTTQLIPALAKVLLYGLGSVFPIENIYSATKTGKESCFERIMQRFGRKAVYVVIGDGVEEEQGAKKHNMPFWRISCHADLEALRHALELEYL
Target sequence (Q15475 whole entry, looked up): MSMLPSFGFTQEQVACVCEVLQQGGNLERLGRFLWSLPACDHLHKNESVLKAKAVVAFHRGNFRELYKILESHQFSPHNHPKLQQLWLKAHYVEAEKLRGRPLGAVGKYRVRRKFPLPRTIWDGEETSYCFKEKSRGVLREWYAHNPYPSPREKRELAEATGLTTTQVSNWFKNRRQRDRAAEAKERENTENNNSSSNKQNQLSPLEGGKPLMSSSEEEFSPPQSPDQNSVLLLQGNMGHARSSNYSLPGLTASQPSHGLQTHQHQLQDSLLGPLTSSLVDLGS
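Compounds are tested against tagged Six1 and Eya2 proteins bridged by glutathione donor and nickel acceptor beads; after a one-hour incubation at 37 °C without light, AlphaScreen emission is recorded.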
Numbers without * were called inactive; ? = inconclusive; nt = no result given; & = joins results of further samples; [ ] = remark or other dose. Hits appear at their usual frequency; 1% or so of the library scored in one or more.

SMILES | CtBP-E1A inh | TRPML1 agonist | D2 ag | PINK1 modulator | TRPML1 inh | Six1-Eya2 inh
Cc1ccc(N=C(c2cccs2)N2CCOCC2)cc1 | 2 | -0.1 | -1.7 | 0.2% | -14 | 1
O=C(Nc1ccc(S(=O)(=O)Nc2ncccn2)cc1)c1cccc(S(=O)(=O)N2CCOCC2)c1 | nt | -0.8 | -4.7 | -0.1% | -8 | 8
Cc1c(C(=O)N/N=C/c2cccnc2)nnn1-c1nonc1N | 4 | 0.4 | -4.8 | -0.8% | 9 | 11
Cc1cc(C)c(C(=O)CSc2nnc(C)c(=O)[nH]2)cc1C | nt | 1.5 | -3.5 | -1.1% | 4 | 11
Cc1ccc(C)c(NC(=O)c2ccc(OCc3c(C)noc3C)cc2)c1 | 0 | 1.1 | 3.5 | -0.3% | -7 | 4
O=C(CNS(=O)(=O)c1cccc(Cl)c1)OCc1csc(-c2ccccc2)n1 | 4 | 4.6 | 5.0 | 4.9% | 22 | 7
O=c1[nH]c2cc3c(cc2cc1CN(Cc1nnnn1C1CCCC1)C1CCCC1)OCCO3 | 7 | 0.1 | -0.4 | 4.8%[38.3 µM] | -12 | -2
Cn1c(=O)c2ncn(CC(=O)Nc3ccc4c5c(cccc35)CC4)c2n(C)c1=O | -5 | 0.4 | -1.8 | -0.6% | -8 | -2
COc1ccc(Cn2c(C)nc([N+](=O)[O-])c2SCC(=O)O)cc1[N+](=O)[O-] | 3 | -0.6 | -21 | -0.7% | -13 | -2
C=CCN1C(=O)c2ccc(C(=O)NCCc3ccc(F)cc3)cc2C1=O | 8 | 1.6 | 2.0 | 1.7% | 12 | -3
CCCC1=C(C(=O)OCC)C(c2ccc(O)cc2)n2ncnc2N1 (centres undefined) | 5 | 1.1 | 0.5 | -0.8% | -12 | 0
COc1ccc(CCNC(=O)CCS(=O)(=O)c2ccc3c(c2)NC(=O)C(C)S3)cc1OC (centres undefined) | -6 | -0.5 | -0.6 | -0.2% | 2 | -1
O=C(c1cc(=O)[nH]c2ccccc12)N1CCN(c2ccc([N+](=O)[O-])cc2)CC1 | -2 | 0.6 | 5.3 | 0.7% | ? | -7
COc1cc2nc(C3CCC3)n(NC(=O)C3CCCC(OC)C3)c(=O)c2cc1OC (centres undefined) | 4 | 0.0 | -1.2 | 20%[38.3 µM] | 5 | 0
COc1ccc(CCNC(=O)CS(=O)Cc2nc(-c3ccccc3Cl)oc2C)cc1OC (centres undefined) | nt | 0.6 | -6.6 | -0.8% | -2 | -5
Cc1ccc(S(=O)(=O)Oc2ccc(/C=N/NC(=O)c3nn(C)cc3Cl)cc2)cc1 | -4 | 1.4 | -0.4 | 0.7% | -4 | -1
C(=N\Nc1ncnc2sc3c(c12)CCC3)/c1ccncc1 | ? | -0.2 | -2.8 | 1.1% | -14 | ?
COc1cc(C(O)c2nc(-c3cccc(NC(C)=O)c3)cs2)ccc1F (centres undefined) | 1 | 0.8 | 0.6 | 0.4% | nt | 1
COc1ccc(NC(=O)COC(=O)Cc2coc3cc(OC)ccc23)c(OC)c1 | 0 | 0.1 | -0.1 | -0.2% | -5 | 0
O=C(COC(=O)c1ccccc1Br)Nc1ccccc1F | 9 | 0.0 | -4.6 | 4.8% | -12 | 5
Cc1cc(C(=O)Nc2cccc3ccccc23)co1 | 7 | 0.8 | -2.2 | -1.1% | -12 | 17
O=c1nc(N2CCCCC2)nc(Nc2ccccc2)[nH]1 | 3 | 0.2 | 3.2 | 0.7%[38.3 µM] | -3 | 1
COc1ccc(-c2nc(SCC(=O)N3CCCCC3C)n[nH]2)cc1 (centres undefined) | nt | -0.2 | nt | 0.4% | -6 | nt
COc1ccccc1C(=O)Nc1cccc(N(C)S(C)(=O)=O)c1 | 10 | 0.5 | 1.4 | -3.2% | 13 | 3
Cc1cc(C)cc(C(=O)N/N=C/c2ccoc2)c1 | 6 | -0.6 | -4.7 | 2.1% | 16 | 8
CCCC12CN(C(=O)c3ccc(OC)cc3)CC(C)(CN(C(=O)c3ccc(OC)cc3)C1)C2=O | 2 | -0.8 | 0.8 | 0.9% | 33 | 0
COc1ccc(-c2c(C)c3ccc(O)c(CN4CCC(C)CC4)c3oc2=O)cc1OC | nt | -0.8 | nt | 2.3% | -17 | nt
CCOc1ccc(CNC(=O)c2ccc3c(c2)sc2nc(-c4ccccc4)cn23)cc1 | nt | 0.2 | nt | 0.2% | 0 | nt
COc1cccc(-c2cnc3c(NC(C)=O)cc(-c4ccc(C(=O)NC5CC5)cc4)cn23)c1 | -16 | 0.2 | 6.7 | 3.7% | nt | -10
O=[N+]([O-])c1ccccc1S(=O)NCc1c(Cl)cccc1Cl (centres undefined) | 7 | -0.8 | -7.1 | -1.1% | nt | 6
S=C(Nc1ccccc1)N1CCN(c2ccccn2)CC1 | -11 | 1.3 | -2.6 | 0.6% | 7 | 7
N#CC1=C(N)SC(N)=C(C#N)C1c1c(Cl)cccc1Cl | 0 | 0.5 | 0.9 | 13% | 6 | -5
COc1cccc(CNC(=O)c2cc(S(=O)(=O)N3CCOCC3)ccc2N2CCCC2)c1 | nt | -0.9 | -3.4 | 1.9% | -14 | -4
Cc1ccc(-n2ncc3c(=O)n(-c4ccc(C)c(C)c4)c(C)nc32)cc1 | -2 | 10 | -0.7 | -1.6% | 85 | 3
Cc1cc(C)c(NC(=O)c2cnn(C)c2)c(C)c1 | 3 | -0.9 | -9.7 | 0.5% | -4 | 0
COc1ccc(OC)c(S(=O)(=O)N2CCC(C(=O)NCc3ccccc3OC)CC2)c1 | 2 | 0.4 | 5.5 | 1.9% | 19 | 1
COCCNC(=O)/C(C#N)=C\c1ccc(CNC(=O)C(=O)Nc2ccc(C)c(C)c2)o1 | -1 | 3.8 | -6.5 | -0.2% | 14 | -1
COCCCNC(=O)CN(CCc1ccccc1)S(=O)(=O)c1ccccc1 | 3 | -0.3 | 2.2 | 0.5% | 13 | -3
COc1ccc(NC(=O)c2cc(-c3ccc(C)cc3O)n[nH]2)c(OC)c1 | 0 | 1.5 | -2.3 | 7.1% | 3 | 2
O=C1CSC(=S)N1Cc1cccs1 | -2 | 0.2 | 0.8 | 4.3% | 1 | -17
CC1CCC(NS(=O)(=O)c2cccc3nsnc23)CC1 (centres undefined) | 0 | 0.0 | -2.0 | 0.1% | -9 | 3
Cc1c(C)c2ccc(OCC(=O)N3CCOCC3)c(C)c2oc1=O | -1 | 0.1 | 1.6 | 0.3% | -11 | 0
COc1ccc(C(O)(C2CCCCC2)C(CN2CCCC2)c2ccccc2)cc1 (centres undefined) | 0 | 1.3 | 1.5 | 21% | -9 | 0
COc1ccc(S(=O)(=O)NCC(c2ccc(N(C)C)cc2)N2CCc3ccccc32)cc1 (centres undefined) | nt | -0.9 | nt | 0.2% | -1 | nt
Fc1ccc(-c2n[nH]c(=S)n2-c2ccc3c(c2)OCCO3)cc1 | nt | 0.7 | -2.5 | 0.7% | -6 | -5
COc1ccc(Cl)cc1NC(=O)CCn1cnc2ccccc2c1=O | 6 | -0.5 | -16 | 1.4% | -20 | 1
CC(C)c1ccc(CN2CCSCC2)cc1 | -1 | 0.6 | -10 | 2.6% | -4 | 0
Cc1nc2c(C#N)cnn2c2c1CCN2CC1CCCO1 (centres undefined) | -5 | 0.9 | -2.5 | 1.1% | -1 | 1
N#C/C(=C\c1ccccc1)C(=O)NC1CC1 | nt | 0.0 | -0.4 | 1.7% | 30 | 10
Cc1ccc(C)c(N2CCN(C(=O)CC3Sc4ccccc4NC3=O)CC2)c1 (centres undefined) | 1 | -0.1 | -0.7 | -0.7% | -2 | -10

Next part (3 carried over from the part before).
Second line of a record – CtBP-E1A inh | TRPML1 agonist | D2 ag | PINK1 modulator | TRPML1 inh | Six1-Eya2 inh
Cc1nc2c(C#N)cnn2c2c1CCN2CC1CCCO1 (centres undefined)
    -5 | 0.9 | -2.5 | 1.1% | -1 | 1
N#C/C(=C\c1ccccc1)C(=O)NC1CC1
    nt | 0.0 | -0.4 | 1.7% | 30 | 10
Cc1ccc(C)c(N2CCN(C(=O)CC3Sc4ccccc4NC3=O)CC2)c1 (centres undefined)
    1 | -0.1 | -0.7 | -0.7% | -2 | -10
COc1ccc(CCNC(=O)C2CC(c3ccc([N+](=O)[O-])cc3)=NO2)cc1 (centres undefined)
    -1 | 0.1 | -0.8 | -1.5% | 6 | 1
c1ccc(-c2onc3cc4c(cc23)OCCO4)cc1
    -1 | 0.3 | ? | 0.9% | 7 | -1
O=C(NCc1cccnc1)c1noc2c1CCCCC2
    12 | 0.4 | 0.0 | -1.9%[38.3 µM] | -9 | 4
O=C(NCCNCCO)C1(C(F)(F)F)C/C(=C\CCO)CCCO1 (centres undefined)
    1 | -0.5&0.5 | 0.4 | 1.9% | -5&-4 | 1
Cc1cc(C(=O)COC(=O)C2=COCCO2)c(C)n1-c1cccc(F)c1
    -15 | 1.8 | 14 | 2.9% | 18 | -16
COc1cc(NS(=O)(=O)c2ccc(-c3cc(C)no3)cc2)cc(OC)c1
    nt | -0.2 | nt | 7.3% | -6 | nt
N#CC(C#N)=Cc1cn(-c2ncc(C(F)(F)F)cc2Cl)c2ccccc12
    6 | 0.2 | -4.2 | 3.4% | 3 | -1
O=C(/C=C/c1cccc([N+](=O)[O-])c1)NCCc1ccc(F)cc1
    5 | 3.8 | -0.1 | 1.4% | ? | -12
O=S1(=O)CCO[C@H]2Cc3ccccc3[C@H]2N1Cc1ccccc1F
    -11 | 0.5&-0.7 | 0.1 | 0.4% | 9 | -6
CCc1ccc(NC(=O)COC(=O)/C=C/c2c(C)nn(C3CCS(=O)(=O)C3)c2Cl)cc1 (centres undefined)
    -18 | 1.4 | 9.5 | -1.5% | 30 | 1
COC(=O)c1ccc2nc(-c3cccc(Cl)c3)c(CC3CCCCC3)n2c1
    7 | -0.1 | nt | 3.4% | nt | 1
CCC(CC)C(=O)Nc1cc(-c2cccc(C)c2)nn1-c1ccccc1
    nt | 0.5 | nt | 2.1% | 16 | nt
COc1ccc(Nc2nc(NCc3ccco3)nc(N/N=C/c3ccccc3F)n2)cc1
    -2 | 2.3 | -8.9 | 2.8% | 39 | -16
COC(=O)c1ccc(NC(=O)c2ccccc2NS(=O)(=O)c2ccccc2)cc1
    -4 | 0.4 | -2.6 | ? | -1 | -1
CCC(=O)c1ccc(OCC(=O)N2CCc3cc(OC)c(OC)cc3C2)cc1
    -3 | -0.8 | -4.2 | -1.1% | 5 | -6
Cc1occc1C(=O)NNC(=S)Nc1ccccc1C(F)(F)F
    32 | 0.3 | -11 | 6.4% | 10 | -8
